Vaccinia stage: Vaccinia orthopox stage-specific inhibition; actives 0.01% (n = 89,000); activity change (mCherry), % (no concentration beside the values); Vaccinia-infected cells, mCherry/Venus stage reporter fluorescence; active compounds read low; some inactives read as strong as hits; AID 1053133;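 active = mCherry past -33% and 40 or more points under the early reporter, replicates agreeing; inconclusive = past -33% without that gap or agreement; tested in A549 cells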;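 note: scaled between vehicle wells and reference inhibitor wells; 23 nL library stock went into each well; one replicate is shown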
Vaccinia stage Venus: recorded beside Vaccinia stage, whose call it bears; activity change (Venus), %; measured here: Venus reporter, other viral stage;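 negative = less Venus signal; first of two replicates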
An asterisk follows results filed as active; ? = inconclusive; nt = not tested or not shown.

SMILES	Vaccinia stage	Vaccinia stage Venus
CO[C@@H]1CN(C)C(=O)c2cc(NS(C)(=O)=O)ccc2OC[C@H](C)N(C(=O)C2CCCC2)C[C@@H]1C	4	4
O=C(C[C@@H]1C[C@H]2c3cc(NC(=O)C4CCC4)ccc3O[C@H]2[C@@H](CO)O1)NCc1ccncc1	1	-6
C[C@@H]1CN([C@@H](C)CO)C(=O)Cc2cc(NC(=O)c3ccncc3)ccc2O[C@H]1CN(C)C(=O)Nc1ccc(F)cc1	11	10
C[C@H](CO)N1C[C@H](C)[C@@H](CN(C)C(=O)c2ccccn2)Oc2cc(C#CC3CC3)ccc2S1(=O)=O	-19	-17
C[C@H]1CN([C@@H](C)CO)C(=O)c2cccc(NC(=O)C3CC3)c2O[C@H]1CN(C)Cc1ccccc1	16	6
CCN1[C@@H]2c3ccc(-c4ccccc4)c(=O)n3C[C@@H]2[C@@H](CO)[C@@H]1C(=O)NCc1ccccc1	-1	-3
CC(C)NC(=O)Nc1ccc2c(c1)CC(=O)N([C@H](C)CO)C[C@@H](C)[C@@H](CN(C)CC1CC1)O2	19	13
COc1cccc(CNC(=O)C[C@H]2C=C[C@@H](NC(C)=O)[C@@H](CO)O2)c1	10	8
COc1ccc(S(=O)(=O)Nc2ccc3c(c2)C(=O)N([C@H](C)CO)C[C@@H](C)[C@@H](CN(C)Cc2ccccc2)O3)cc1	-22	-10
C[C@H](CO)N1C[C@H](C)[C@H](CN(C)Cc2ccc(C(=O)Nc3ccccc3N)cc2)Oc2c(NC(=O)C3CCCCC3)cccc2C1=O	-18	-14
C[C@H](CO)N1C[C@H](C)[C@H](CN(C)Cc2ccc(-c3ccccc3)cc2)Oc2ccc(NC(=O)Cc3cn(C)c4ccccc34)cc2C1=O	-12	-3
CCNC(=O)C[C@@H]1CC[C@H]2[C@@H](COC[C@@H](O)CN2C(=O)Nc2ccc3c(c2)OCO3)O1	15	7
CC(C)(C)[S@@](=O)N1Cc2cc(C(=O)NCc3ccccn3)nc(-c3cccc(-c4ccccc4F)c3)c2[C@H]1CCO	?	nt
O=C(Cc1ccccc1)N1CC2(C1)[C@H](c1ccccc1)[C@H](CO)N2S(=O)(=O)Cc1ccccc1	-27	-16
C[C@@H]1CCCCO[C@H](CN(C)C(=O)C2CCCCC2)[C@@H](C)CN([C@@H](C)CO)C(=O)c2cc(NC(=O)c3ccccc3)ccc2O1	-16	-10
C[C@H]1CN([C@@H](C)CO)C(=O)CCCn2nncc2CO[C@H]1CN(C)S(=O)(=O)c1cn(C)cn1	-9	-7
CO[C@@H]1CN(C)C(=O)c2cc(NC(=O)NC(C)C)ccc2OC[C@@H](C)N(CC2CC2)C[C@@H]1C	3	-5
Cc1ccccc1-c1cnc2c(c1)C(=O)N([C@H](C)CO)C[C@H](C)[C@H](CN(C)C(=O)CN(C)C)O2	15	16
O=C(C1CCCC1)N1CC(=O)N2[C@H](C1)[C@@H](c1ccc(-c3ccccc3F)cc1)[C@@H]2CO	?	nt
Cc1noc(C)c1S(=O)(=O)Nc1ccc2c(c1)C(=O)N([C@@H](C)CO)C[C@H](C)[C@H](CN(C)C(=O)CCC(F)(F)F)OCCCC[C@@H](C)O2	-7	-5
CCC(=O)N1[C@@H]2CN(C(=O)c3ccncc3)c3ccccc3[C@@H]2[C@@H]1CO	1	17
COCC#Cc1ccc2c(c1)O[C@H](CN(C)C(=O)C1CCCCC1)[C@@H](C)CN([C@H](C)CO)S2(=O)=O	-1	-2
C[C@@H]1CN([C@@H](C)CO)C(=O)c2cc(-c3cncnc3)cnc2O[C@@H]1CN(C)Cc1cncnc1	25	10
CCCNC(=O)N1C[C@H]2[C@@H](c3ccccc31)[C@@H](CO)N2C(=O)c1ccncc1	10	3
C[C@H]1CN([C@@H](C)CO)C(=O)c2cc(C3=CCCC3)cnc2O[C@H]1CN(C)C(=O)C1CCC1	7	9
Cc1noc(C)c1NC(=O)N(C)C[C@@H]1Oc2c(NC(=O)C3CC3)cccc2C(=O)N([C@@H](C)CO)C[C@H]1C	3	13
C[C@@H]1CN([C@H](C)CO)S(=O)(=O)c2ccc(-c3ccncc3)cc2O[C@H]1CN(C)C	15	5
CCCNC(=O)[C@@H]1[C@@H](CO)[C@@H]2Cn3c(cccc3=O)[C@@H]2N1CC1CCCCC1	6	5
CO[C@@H]1CN(C)C(=O)c2cc(NC(=O)C3CC3)ccc2OC[C@H](C)N(C)C[C@@H]1C	-1	-5
COCC(=O)N1CC2(CCN(Cc3ccc(Cl)cc3)CC2)c2c([nH]c3cc(OC)ccc23)[C@H]1CO	?	nt
C[C@@H]1CN([C@H](C)CO)C(=O)Cc2cc(NS(=O)(=O)c3ccc(F)cc3)ccc2O[C@H]1CN(C)S(C)(=O)=O	-3	9
C[C@H](CO)N1C[C@H](C)[C@H](CN(C)C(=O)Nc2cccc3ccccc23)Oc2ccc(NC(=O)CCC(F)(F)F)cc2C1=O	7	8
COc1ccc(CN(C)C[C@H]2Oc3ccc(NC(=O)Cc4cn(C)c5ccccc45)cc3CC(=O)N([C@H](C)CO)C[C@H]2C)cc1	-11	-7
C[C@@H]1CN([C@@H](C)CO)S(=O)(=O)c2ccc(C#CC3CCCC3)cc2O[C@@H]1CN(C)Cc1cncnc1	-33	-26
Cc1ccc(-c2ccc([C@H]3[C@@H](CO)N4CCCCN(Cc5cncnc5)C[C@H]34)cc2)cc1	-29	-32
C[C@H]1CN([C@@H](C)CO)C(=O)c2cc(-c3ccccc3F)cnc2O[C@H]1CN(C)C(=O)C1CCOCC1	25	16
COc1ccc(S(=O)(=O)N(C)C[C@H]2OCCCC[C@H](C)Oc3ccc(NC(=O)Nc4cccc5ccccc45)cc3C(=O)N([C@H](C)CO)C[C@H]2C)cc1	8	5
C[C@@H]1CN([C@H](C)CO)C(=O)c2cccc(NS(=O)(=O)c3cn(C)cn3)c2O[C@H]1CN(C)Cc1ccc(C(=O)Nc2ccccc2N)cc1	15	8
C[C@@H]1CCCCO[C@@H](CN(C)Cc2ccccc2)[C@@H](C)CN([C@@H](C)CO)C(=O)c2cc(N(C)C)ccc2O1	-27	-13
CN(C)C(=O)[C@@H]1[C@@H](CO)[C@@H]2Cn3c(ccc(C4=CCCC4)c3=O)[C@H]1N2S(=O)(=O)c1cn(C)cn1	10	8
C/C=C/c1cnc2c(c1)C(=O)N([C@H](C)CO)C[C@H](C)[C@@H](CN(C)C(=O)Nc1ccccc1F)O2	12	9
Cc1cc(C(=O)Nc2cccc3c2O[C@@H](CN(C)C(=O)Nc2cccc4ccccc24)[C@H](C)CN([C@H](C)CO)C3=O)n(C)n1	3	13
O=C(C1=C[C@H](c2csc3ccccc23)C[C@H](OCc2ccc(CO)cc2)O1)N1CCOCC1	4	9
CC(C)NC(=O)N(C)C[C@@H]1OCCCC[C@H](C)Oc2ccc(NC(=O)Cc3ccccc3)cc2C(=O)N([C@H](C)CO)C[C@H]1C	-4	-5
C[C@H]1CN([C@@H](C)CO)C(=O)c2cccc(NC(=O)Nc3ccc(C(F)(F)F)cc3)c2O[C@H]1CN(C)S(=O)(=O)c1ccc(F)cc1	?	nt
C[C@H](CO)N1C[C@H](C)[C@H](CN(C)Cc2ccncc2)OCc2ccccc2-c2c(n(C)c3ccccc23)C1=O	-8	-8
Cc1ccc(-c2ccc([C@H]3[C@@H](CO)N4C(=O)CN(C(=O)c5cccnc5)C[C@@H]34)cc2)cc1	17	-15
O=C(C[C@@H]1CC[C@@H](NC(=O)c2ccncc2)[C@H](CO)O1)NCC1CCCCC1	1	2
O=C(Nc1ccc2c(c1)[C@H]1C[C@@H](CC(=O)N3CCCCC3)O[C@H](CO)[C@H]1O2)C1CCOCC1	-12	-6
Cc1ccc(S(=O)(=O)Nc2cccc3c2O[C@H](CN(C)C(=O)Nc2ccc(C(F)(F)F)cc2)[C@@H](C)CN([C@@H](C)CO)C3=O)cc1	-7	-12
CO[C@H]1CN(C)C(=O)c2cc(NC(C)=O)ccc2OC[C@@H](C)NC[C@@H]1C	5	7
CCNC(=O)C[C@H]1CC[C@@H]2[C@H](COC[C@H](O)CN2C(=O)CC)O1	14	2
Cc1noc(C)c1S(=O)(=O)Nc1ccc2c(c1)CC(=O)N([C@@H](C)CO)C[C@H](C)[C@@H](CN(C)C(=O)Nc1ccc(C(F)(F)F)cc1)O2	3	4
COc1ccc(C#Cc2ccc([C@@H]3[C@H](CO)N4CCCCN(C(=O)Cc5cccnc5)C[C@@H]34)cc2)cc1	?	nt
C[C@H]1CN([C@@H](C)CO)C(=O)c2cccc(NS(=O)(=O)c3ccc(F)cc3)c2O[C@H]1CN(C)S(=O)(=O)c1cccs1	-5	-3
COCC(=O)N(C)C[C@@H]1Oc2cc(-c3ccc(F)cc3)ccc2S(=O)(=O)N([C@@H](C)CO)C[C@@H]1C	-3	-9
COCC(=O)N1CCC2(CC1)CN(C(=O)CN1CCOCC1)[C@H](CO)c1c2c2ccc(OC)cc2n1C	-2	-7
CC(C)NC(=O)N(C)C[C@H]1Oc2ccc(NC(=O)Nc3ccc(C(F)(F)F)cc3)cc2CC(=O)N([C@@H](C)CO)C[C@H]1C	?	nt
Cc1noc(C)c1NC(=O)N(C)C[C@H]1OCCCC[C@@H](C)Oc2ccc(NS(=O)(=O)c3ccc(F)cc3)cc2C(=O)N([C@H](C)CO)C[C@@H]1C	19	10
C[C@@H]1CCCCO[C@@H](CN(C)Cc2ccc3c(c2)OCO3)[C@H](C)CN([C@@H](C)CO)C(=O)c2cc(NC(=O)Nc3ccc(F)cc3)ccc2O1	?	nt

Next records
SMILES	Vaccinia stage	Vaccinia stage Venus
COc1ccc(S(=O)(=O)N(C)C[C@@H]2Oc3c(NS(=O)(=O)c4cn(C)cn4)cccc3C(=O)N([C@@H](C)CO)C[C@H]2C)cc1	7	6
C[C@@H]1CN([C@H](C)CO)C(=O)c2cc(NC(=O)C3CC3)ccc2O[C@H]1CN(C)Cc1ccc(C(F)(F)F)cc1	-17	-16
O=C(O)[C@H]1[C@H](CO)[C@H]2Cn3c(ccc(C4=CCCCC4)c3=O)[C@H]2N1Cc1ccccc1F	-2	4
C[C@@H]1CN([C@@H](C)CO)S(=O)(=O)c2ccc(C#Cc3ccc(F)cc3)cc2O[C@@H]1CN(C)S(=O)(=O)c1cn(C)cn1	?	nt
Cc1ccc(S(=O)(=O)Nc2cccc3c2O[C@H](CN(C)S(=O)(=O)c2c(C)noc2C)[C@@H](C)CN([C@H](C)CO)C3=O)cc1	-11	-14
C[C@@H]1CCCCO[C@H](CN(C)C(=O)c2ccncc2)[C@@H](C)CN([C@H](C)CO)C(=O)c2cc(NS(=O)(=O)c3cccs3)ccc2O1	29	11
CNC[C@H]1Oc2ccc(NC(=O)Nc3c(C)noc3C)cc2CC(=O)N([C@@H](C)CO)C[C@H]1C	13	11
Cc1noc(C)c1S(=O)(=O)Nc1ccc2c(c1)C(=O)N([C@@H](C)CO)C[C@@H](C)[C@@H](CN(C)CC1CCCCC1)OCCCC[C@@H](C)O2	?	nt
CCC(=O)N1C[C@H](C)[C@@H](OC)CN(C)C(=O)c2cc(NC(=O)Nc3cccc(F)c3)ccc2OC[C@@H]1C	7	1
CCC(=O)N(C)C[C@@H]1Oc2cc(-c3cccnc3)ccc2S(=O)(=O)N([C@@H](C)CO)C[C@@H]1C	21	7
COc1cccc(S(=O)(=O)N[C@H]2CC[C@H](CCn3cc(-c4ccccc4)nn3)O[C@H]2CO)c1	-14	-7
COCC#Cc1ccc([C@H]2[C@H](CO)N3CCCCN(S(=O)(=O)c4ccc(OC)cc4)C[C@@H]23)cc1	-6	-3
CC(=O)N(C)C[C@H]1Oc2ncc(-c3cccc(F)c3)cc2C(=O)N([C@H](C)CO)C[C@H]1C	1	-10
COc1ccc(NC(=O)N(C)C[C@H]2Oc3c(NS(=O)(=O)c4cn(C)cn4)cccc3C(=O)N([C@@H](C)CO)C[C@@H]2C)cc1	2	2
C[C@@H]1CN([C@H](C)CO)C(=O)c2cc(C3=CCCC3)cnc2O[C@H]1CN(C)C(=O)C1CCCCC1	-4	0

In the list so far, 11 contain an aryl methoxy group.
SMILES	Vaccinia stage	Vaccinia stage Venus
COc1cccc(CNC(=O)C[C@H]2C=C[C@@H](NC(C)=O)[C@@H](CO)O2)c1	10	8
COc1ccc(S(=O)(=O)Nc2ccc3c(c2)C(=O)N([C@H](C)CO)C[C@@H](C)[C@@H](CN(C)Cc2ccccc2)O3)cc1	-22	-10
COCC(=O)N1CC2(CCN(Cc3ccc(Cl)cc3)CC2)c2c([nH]c3cc(OC)ccc23)[C@H]1CO	?	nt
COc1ccc(CN(C)C[C@H]2Oc3ccc(NC(=O)Cc4cn(C)c5ccccc45)cc3CC(=O)N([C@H](C)CO)C[C@H]2C)cc1	-11	-7
COc1ccc(S(=O)(=O)N(C)C[C@H]2OCCCC[C@H](C)Oc3ccc(NC(=O)Nc4cccc5ccccc45)cc3C(=O)N([C@H](C)CO)C[C@H]2C)cc1	8	5
COc1ccc(C#Cc2ccc([C@@H]3[C@H](CO)N4CCCCN(C(=O)Cc5cccnc5)C[C@@H]34)cc2)cc1	?	nt
COCC(=O)N1CCC2(CC1)CN(C(=O)CN1CCOCC1)[C@H](CO)c1c2c2ccc(OC)cc2n1C	-2	-7
COc1ccc(S(=O)(=O)N(C)C[C@@H]2Oc3c(NS(=O)(=O)c4cn(C)cn4)cccc3C(=O)N([C@@H](C)CO)C[C@H]2C)cc1	7	6
COc1cccc(S(=O)(=O)N[C@H]2CC[C@H](CCn3cc(-c4ccccc4)nn3)O[C@H]2CO)c1	-14	-7
COCC#Cc1ccc([C@H]2[C@H](CO)N3CCCCN(S(=O)(=O)c4ccc(OC)cc4)C[C@@H]23)cc1	-6	-3
COc1ccc(NC(=O)N(C)C[C@H]2Oc3c(NS(=O)(=O)c4cn(C)cn4)cccc3C(=O)N([C@@H](C)CO)C[C@@H]2C)cc1	2	2

Source: PubChem

An excerpt (hit frequency here may not be typical).
